Screens from PubChem BioAssay.
PABP polyA inh: PABP-poly(A) binding inhibition. AID 2014. actives 1% (n = 290,000). PABP-poly(A) RNA binding, fluorescence polarization. inhibition, % at 35 µM. P11940;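 active = 50% or more with normal probe brightness, or confirmed in later tests; inconclusive = above 50% with abnormal brightness, or retests that disagree; inactive = below 50% or failed in later tests; about a fifth of its hits are not listed in these tables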;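 also: calls also rest on retests at 20 µM and on dose response follow-up; controls were probe without protein and protein plus probe with vehicle; some compounds called inactive have numbers as strong as hits; many hits fall short of the cut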
Target sequence (P11940 whole entry, looked up): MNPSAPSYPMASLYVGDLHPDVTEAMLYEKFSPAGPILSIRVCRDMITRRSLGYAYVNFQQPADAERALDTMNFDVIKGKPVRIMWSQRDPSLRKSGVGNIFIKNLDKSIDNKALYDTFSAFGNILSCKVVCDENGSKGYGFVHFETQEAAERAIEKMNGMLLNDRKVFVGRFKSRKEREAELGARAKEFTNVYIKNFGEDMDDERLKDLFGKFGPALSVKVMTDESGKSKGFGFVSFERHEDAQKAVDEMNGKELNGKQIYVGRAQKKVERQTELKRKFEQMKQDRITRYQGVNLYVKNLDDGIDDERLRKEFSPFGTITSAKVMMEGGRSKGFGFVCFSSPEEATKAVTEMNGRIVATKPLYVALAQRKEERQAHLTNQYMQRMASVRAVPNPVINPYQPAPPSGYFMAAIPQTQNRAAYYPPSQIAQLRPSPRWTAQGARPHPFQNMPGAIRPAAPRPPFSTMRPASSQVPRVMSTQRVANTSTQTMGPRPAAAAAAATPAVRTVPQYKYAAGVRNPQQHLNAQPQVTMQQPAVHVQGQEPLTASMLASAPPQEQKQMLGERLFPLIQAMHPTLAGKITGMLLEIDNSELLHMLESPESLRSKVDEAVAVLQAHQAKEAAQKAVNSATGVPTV
Rce1 inhib: blocks yeast Ras-converting enzyme. AID 2563. yeast membranes, quenched prenylated peptide cleavage fluorescence. calls only. Q03530. actives 0.27% (n = 290,000);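 active = fall in fluorescence gain of 50% or more versus controls, with final raw signal at or below 3038400; inconclusive = same 50% fall but final raw signal above 3038400; inactive = fall in fluorescence gain under 50%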;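 also: plate controls were neutral control wells for no effect and wells lacking membranes for full effect; tested at 10 µM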
Target sequence (Q03530 whole entry, looked up): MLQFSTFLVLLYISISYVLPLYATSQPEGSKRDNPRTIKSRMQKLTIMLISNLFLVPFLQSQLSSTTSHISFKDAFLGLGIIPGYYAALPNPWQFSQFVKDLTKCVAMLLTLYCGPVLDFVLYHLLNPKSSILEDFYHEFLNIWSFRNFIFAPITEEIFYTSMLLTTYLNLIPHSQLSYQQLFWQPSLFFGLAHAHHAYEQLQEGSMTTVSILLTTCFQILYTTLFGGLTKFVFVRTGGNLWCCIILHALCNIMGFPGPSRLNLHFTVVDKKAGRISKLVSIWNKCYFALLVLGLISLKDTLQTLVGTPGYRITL
HIV Env fusion: HIV envelope-mediated fusion inhibition. HeLa-JRFL Env/CEM21 cell fusion, luciferase. inhibition, % at 12.3 µM. actives 1.1% (n = 360,000). AID 651610;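 active = mean replicate inhibition score of at least 50 and every replicate individually at or above 50; inconclusive = only one of the two criteria met; inactive = mean below 50 and not all replicates reaching 50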;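 also: 0% = plate neutral controls and 100% = maraviroc near 300 nM; one replicate is shown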
MT1-MMP act inh: blocks activation of human MT1-MMP; HT1080 RFP-PRO-GFP cells, GFP/RFP ratio fluorescence, overnight; percent of plate control window, DMSO zero; GFP/RFP ratio change, % at 20 µM; actives 0.061% (n = 360,000); AID 651647;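 active = GFP/RFP ratio change of at least 30% with cell ATP level not reduced by more than half and red fluorescence within 50% of control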; also: strong numbers were not always called active
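Read-out: GFP/RFP fluorescence ratio; Test system: RFP-PRO-GFP reporter HT1080 cells; Compound dosing: single-point 20 µM compound, 1% DMSO; Times: overnight compound exposure at 37 °C.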
CSC inhib: cancer stem cell inhibition; cancer stem cell-like cells viability, luminescence; inhibition, % at 7.5 µM; actives 1.1% (n = 300,000); AID 2717;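 active = mean at 75% or more and at least half the replicates too; inconclusive = mean and replicates disagree; tested in HMLE shEcad cells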;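 also: 0% = median of negative and 100% = median of positive control wells; the first replicate is given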
eIF4H FP inh: inhibitors of RNA binding by human eIF4H | Q15056 | eIF4H fluorescence polarization binding assay | inhibition, % at 35 µM | actives 0.94% (n = 290,000);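 active = 50% or more with normal probe brightness, or confirmed in later tests; inconclusive = above 50% with abnormal brightness, or retests that disagree; inactive = below 50% or failed in later tests; about a fifth of its hits are not listed in these tables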;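 also: calls also rest on retests at 20 µM and on dose response follow-up; 0% = protein and probe with vehicle and 100% = probe without protein; strong numbers were not always called active; many hits fall short of the cut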
UUG fidelity: alters start codon recognition fidelity in yeast; activity score, % at 18.7 µM; actives 0.13% (n = 350,000); S. cerevisiae UUG-firefly luciferase reporter, luminescence/redox ratio;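 active = replicate mean at a twofold rise or more, about +100% in these data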;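 also: firefly luciferase made from a UUG start codon reports start codon fidelity; reporter light over untreated wells divided by growth signal over untreated wells; some hits fall short of that in this replicate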
MT1-MMP act inh RFP: recorded beside MT1-MMP act inh, whose call it bears; RFP signal change, %; measured here: RFP expression control read;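 0 = vehicle wells; hits needed this value within 50% of zero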
Starred values were filed as active, the others as inactive; i = inactive; ? = inconclusive; . = not tested or not shown; & = joins results of further samples. Not all compounds are listed. The share of hits here may be higher or lower than overall.

SMILES	PABP polyA inh	Rce1 inhib	HIV Env fusion	MT1-MMP act inh	MT1-MMP act inh RFP	CSC inhib	eIF4H FP inh	UUG fidelity
CCOC(=O)N1CCN(C(=O)c2ccc3nc4ccc(Cl)cc4c(=O)n3c2)CC1	-6	i	-39	-3	-2	3	0	4
NC(=O)NC(=O)COC(=O)CCCCCNS(=O)(=O)c1ccc2c(c1)OCCO2	-2	i	-23	-3	1	-14	-2	.
CCOC(=O)c1c(-c2ccc(C)o2)csc1NC(=O)CN1CCOCC1	-9	i	-21	-7	-2	3	0	-11
COc1ccc(CCNC(=O)c2cc(-c3cc(Cl)cc(Cl)c3)oc2C)cc1	-9	i	4	1	4	-11	-4	-9
COc1ccc(NC(=O)c2cccc3c2C(=O)c2ccc(-c4cnc(OC)nc4)cc2S3(=O)=O)cc1	.	.	-3	-3	6	10	.	0
O=C(Nc1ccc(O)c2c(=O)cc(-c3cccc(Cl)c3)oc12)c1cccc(Cl)c1	12	i	-4	7	-1	31	-11	1
CNC(=O)c1c(NC(=O)c2ccc(S(=O)(=O)N3CCCC3)cc2)sc2c1CCN(C(C)C)C2	23	i	-15	.	.	-9	?	.
O=C(OCc1ccccc1C(F)(F)F)c1cc([N+](=O)[O-])ccc1N1CCOCC1	-14	i	27	-1	-3	-5	-8	6
CC(CCc1ccccc1)NC(=O)N1CCOCC1 (stereo not drawn)	5	i	-11	2	3	22	-2	.
CCOC(=O)CNC(=O)CNC(=O)c1ccc(OC)cc1	11	i	.	-6	2	4	-6	-13
COCCNC(=O)c1csc2c1CCCC2	-8	i	-19	1	3	-20	-5	-6
CCOC(=O)Cn1ncc2c(=O)oc3ccccc3c21	-6	i	-34	-1	5	-4	-10	-23
CCc1ccc(C(C(=O)NC2CCCCC2)N(C(=O)c2ccccn2)c2cccnc2)cc1 (stereo not drawn)	-6	i	.	.	.	1	-6	.
CCCNC(=O)C1(C)CCN1C(=O)c1ccc(C(C)(C)C)cc1 (stereo not drawn)	.	.	-18	9	-3	.	.	0
OCCNCCCCOc1ccc(OCc2ccccc2)cc1	-8	i	.	14	4	53	-18	-17
CC(=O)Nc1ccc(NC(=O)C(C)OC(=O)C2(c3ccccc3F)CCCC2)cc1 (stereo not drawn)	.	.	.	2	-2	-4	.	-10
Cc1ccc(S(=O)(=O)NC(=O)c2ccccc2F)cc1	-4	i	.	1	3	2	-14	-2
C/C(=C\C(=O)O)C12CC3CC(CC(C3)C1)C2	0	i	-44	-4	5	-2	-5	-4
Cc1noc(/C=C/N(C)C)c1S(=O)(=O)N1CCC(C(=O)Nc2ccc(Cl)cc2)CC1	-6	i	4	-7	-1	-2	0	-17
O=C1CCC/C=C\C[C@@H](CC(=O)N(CCO)Cc2ccccc2)C(=O)N[C@H](c2ccccc2)CO1	.	.	?	0	3	-13	.	-8

Brought forward from above: 4 compounds, followed by the next part.
SMILES	PABP polyA inh	Rce1 inhib	HIV Env fusion	MT1-MMP act inh	MT1-MMP act inh RFP	CSC inhib	eIF4H FP inh	UUG fidelity
Cc1ccc(S(=O)(=O)NC(=O)c2ccccc2F)cc1	-4	i	.	1	3	2	-14	-2
C/C(=C\C(=O)O)C12CC3CC(CC(C3)C1)C2	0	i	-44	-4	5	-2	-5	-4
Cc1noc(/C=C/N(C)C)c1S(=O)(=O)N1CCC(C(=O)Nc2ccc(Cl)cc2)CC1	-6	i	4	-7	-1	-2	0	-17
O=C1CCC/C=C\C[C@@H](CC(=O)N(CCO)Cc2ccccc2)C(=O)N[C@H](c2ccccc2)CO1	.	.	?	0	3	-13	.	-8
Cn1cccc1C(=O)OCC(=O)N1CCc2ccccc2C1	.	.	-15	4	4	.	.	-14
COc1ccc(-n2c(Cc3cccn3C)nnc2SCC(=O)NCCc2ccccc2)cc1	0	i	9	-5	-3	-9	0	-3
COC(=O)c1cc(=O)n(Cc2ccc(F)cc2)c(=NCc2ccc(F)cc2)s1	1	.	16	0	-1	-2	10	.
COc1ccccc1NC(=O)c1c(C)cc(=O)oc1C	-1	i	.	-1	9	5	3	-17
COc1ccccc1C(O)c1ncc(-c2cccc3ccccc23)[nH]1 (stereo not drawn)	.	.	23	-1	2	.	.	-22
c1ccc(-c2noc(-c3ccco3)n2)nc1	0	i	-1	-20	1	7	-4	-24
O=C(Cn1ccccc1=S)c1ccc(Cl)c(Cl)c1	.	i	8	1	6	5	.	-24
CC(C)CCN1CCN(Cc2cc(F)ccc2-n2cccn2)CC1CCO (stereo not drawn)	2	i	-15	7	9	4	6	.
C=CCn1c(SCC(=O)Nc2sccc2C(N)=O)nc2sc(CC)cc2c1=O	6	i	.	-5	-23	15	4	-1
O=C(OCc1c(-c2ccccc2)ncc2ccccc12)c1ccc(Cl)cc1Cl	.	.	4	3	-3	17	.	-24
CCc1ccc2[nH]c(=O)c(CN(CCN(CC)CC)C(=O)Nc3ccccc3OC)cc2c1	-2	i	.	1	2	.	-3	.
COC(=O)[C@H]1C[C@H](OC(=O)NCc2ccco2)[C@@]2(O)CN(S(=O)(=O)c3ccc(C)cc3)CC2[C@H]1C(=O)OC (stereo partly drawn)	.	.	-68	0	1	.	.	12
CN(/N=C/c1ccncc1)c1cnc2ccccc2n1	5	i	-110	-2	2	.	3	.
CC(C)NC(=O)C(=O)N/N=C/c1ccco1	11	i	.	-1	6	-3	-8	-12
O=C(CN(c1cccc(Cl)c1)S(=O)(=O)c1ccccc1)NN=C1CCCC1	4	i	5	2	2	5	15	-10
COc1ccc(C(=O)NC(=S)N2CCN(c3ccccc3OC)CC2)cc1	10	i	3	10	6	.	-8	-21
Cc1ccc(C(=O)NNC(=O)c2ccc3ncccc3c2)cc1	11	i	8	-1	1	.	-5	.
CC(=O)NCCNc1nc2c(-c3cccc(C)c3)nnn2c2ccccc12	8	i	-2	3	-1	6	1	-13
CCOCCCN(C(=O)Cn1nnc(-c2ccc(OC)c(OC)c2)n1)C(C(=O)NCC1CCCO1)c1ccc(F)cc1 (stereo not drawn)	4	i	-27	-4	-3	-10	-7	-6
O=C(CSc1nc2[nH]ncc2c(=O)[nH]1)NCc1ccc(F)cc1	1	i	-3	2	0	-2	6	3

A few values from the list:
`c1ccc(-c2noc(-c3ccco3)n2)nc1` in MT1-MMP act inh RFP shows 1
`COc1ccccc1C(O)c1ncc(-c2cccc3ccccc23)[nH]1` (stereo not drawn) in MT1-MMP act inh shows -1
`O=C(CSc1nc2[nH]ncc2c(=O)[nH]1)NCc1ccc(F)cc1` in UUG fidelity shows 3
`Cn1cccc1C(=O)OCC(=O)N1CCc2ccccc2C1` in HIV Env fusion shows -15
`COc1ccc(C(=O)NC(=S)N2CCN(c3ccccc3OC)CC2)cc1` in MT1-MMP act inh shows 10
`CN(/N=C/c1ccncc1)c1cnc2ccccc2n1` in PABP polyA inh shows 5
`Cc1ccc(C(=O)NNC(=O)c2ccc3ncccc3c2)cc1` in HIV Env fusion shows 8

Remaining list, next part
SMILES	PABP polyA inh	Rce1 inhib	HIV Env fusion	MT1-MMP act inh	MT1-MMP act inh RFP	CSC inhib	eIF4H FP inh	UUG fidelity
Cn1cc(C(=O)N2CCCCC2)c(=O)c2cc(S(=O)(=O)N3CCCC3)ccc21	.	i	-15	2	3	-28	.	-4
O=C(Cc1ccc(NC(=O)C2CCCN(C(=O)C3CCCC3)C2)cc1)Nc1cccc(C(=O)N2CCCC2)c1 (stereo not drawn)	.	.	-2	4	6	.	.	10
CC(C)n1nnnc1SCC(=O)NCc1ccco1	.	i	.	-13	4	.	.	0
CCN(C(=O)CSc1nc2ccccc2c(=O)n1CCOC)C1CCS(=O)(=O)C1 (stereo not drawn)	-2	i	-4	2	0	-8	-2	-9
C/C(=N\NS(=O)(=O)c1ccc(C)c([N+](=O)[O-])c1)c1cccs1	28	i	-9	-1	0	-15	3	-12
O=c1cc(CSc2ccc(Cl)cc2)[nH]c2[nH]n(-c3ccccc3)c(=O)c12	23	i	-2	-2	-1	15	28	-3
CCCCCCCCCc1nc(N)n[nH]1	-1	i	.	-1	2	13	-11	-9
C[C@H](NC(=O)N1CCn2c1nc1ccccc12)C(=O)NCCc1ccccc1	-5	i	4	1	2	-22	-6	-11
CCn1c(SCc2nc3ccccc3c(=O)[nH]2)nc2ccccc2c1=O	-10	.	.	-4	-3	.	-11	-19
O=C(c1ccc(F)cc1)N1CCCCC(Sc2nnc3ccccn23)C1=O (stereo not drawn)	-6	i	17	2	2	-11	1	-9
O=C(Nc1ccc2nc3n(c(=O)c2c1)CCCCC3)C(=O)N1CCN(c2ccc(F)cc2)CC1	4	i	-10	1	-9	31	-6	9
O=C(OCc1nc2ccsc2c(=O)[nH]1)c1ccc(Cl)nc1	.	i	1	-2	-3	-10	.	-15
CC(=O)c1ccc(N2CCN(C(=O)c3noc4c3CSc3ccccc3-4)CC2)cc1	-8	i	-3	2	-5	-4	-4	0
COc1ccc(C2=CC(=O)CC(C)(C)C2)cc1OC	.	.	-24	-3	3	-7	.	-4
CC[C@H]1OC(=O)[C@H](C)[C@@H](O[C@H]2C[C@@](C)(OC)[C@@H](O)[C@H](C)O2)[C@H](C)[C@@H](O[C@@H]2O[C@H](C)C[C@H](N(C)C)[C@H]2O)[C@](C)(O)C[C@@H](C)CN(C)[C@H](C)[C@@H](O)[C@]1(C)O	.	i	-7	0	1	-1	.	-15
CCN(CC(=O)Nc1ccccc1C(F)(F)F)C(=O)CSCC(=O)Nc1cc(C)on1	.	i	.	3	7	-8	.	.
O=C(O)c1cc2c(cn1)[nH]c1ccccc12	18	i	3	-3	6	3	10	-23
Cc1cccc(-n2ccc(=O)c(C(=O)Nc3ccc(S(=O)(=O)Nc4nccc(C)n4)cc3)n2)c1	6	i	-22	4	2	-12	-1	1
Cc1cccc(NC(=O)Cn2nnc3ccccc32)c1	-4	i	-6	-4	-3	.	5	-20
COc1ccc(CC(=O)N2CCNC2=O)cc1	4	i	-12	4	2	-6	-6	17
Cc1nn(C)c(C)c1S(=O)(=O)N1CCCC(C(=O)NC2CCCCC2)C1 (stereo not drawn)	2	i	.	3	-3	-8	-3	-14
Cc1ccc(-c2cc(C(=O)OCC(=O)NC3CC3)c3ccccc3n2)cc1	.	.	-9	-1	-4	.	.	-4
CC1(C)Cc2c(sc3nc(-c4ccccc4Cl)n(N)c(=O)c23)CO1	4	i	.	3	-1	-6	-2	9
O=C(COc1ccc2c(c1)OCO2)Nc1ccc(Cl)cn1	4	i	-78	3	-4	30	-6	-22
COc1ccc(S(=O)(=O)N2CCN(CC(=O)N3CCOCC3)CC2)cc1OC	.	.	10	3	4	6	.	-10
O=c1ccc(S(=O)(=O)N2CCCC2)cn1Cc1ccc(Cl)cc1Cl	.	.	.	0	-20	-13	.	-7
COc1ccc(Cl)cc1-c1cc(C(=O)Nc2cc(OC)c(OC)c(OC)c2)[nH]n1	.	.	-8	1	-1	.	.	-4
CCSc1nnc(SCC(=O)Nc2cc(C)on2)s1	.	.	25	-6	6	-18	.	-13
Cc1nnc(SCC(=O)Nc2nccs2)n1C(C)C	6	i	1	1	4	1	0	-10
C[C@H]1CN([C@@H](C)CO)C(=O)c2cccc(NC(=O)Nc3ccc(C(F)(F)F)cc3)c2O[C@H]1CN(C)C	.	.	18	5	3	5	.	0&-3
